# ugtP null kill – growth inhibition of ugtP-null S. aureus, primary screen, RN4220 ugtP deletion, OD600 | 16 h; some inactives read as strong as hits | growth inhibition, % (test concentration not listed) | actives 0.54% (n = 330,000) | AID 1259309, 2017;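 active = z-score under -3 and OD600 up to 0.15 on both plates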;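 also: plate controls were untreated wells for no effect and antibiotic for full effect; wells of about 80 µL received 100 nL stock; the first replicate is given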
# BJeLR viability – MLPCN primary cell-based screen for lethality selective to Ras in HRASV12 cells; actives 0.17% (n = 300,000); inhibition, % (concentration not given with the values); BJeLR (HRASV12) viability, CellTiter-Glo ATP luminescence, 48 h; reference of the scale not given here;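 active = replicate mean above 50%; inconclusive = above 50% but judged a plate artefact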;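 also: 50 nL library stock added to about 25 µL; numbers are from one replicate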
# PrP UTR inh – inhibition of PrP 5' UTR reporter expression. cell-based PrP 5' UTR mRNA reporter, plate reader. inhibition, % (concentration not given with the values). actives 0.35% (n = 340,000);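 active = every replicate at 50% or more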;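 also: 0 = median of the neutral control wells; tested in H4 reporter cells; numbers are from one replicate; inactives centre near -14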
# RN4220 kill – growth inhibition of S. aureus RN4220, primary screen, OD600 | 16 h | inhibition, % (test concentration not listed) | actives 0.33% (n = 330,000) | AID 1259311, 2017;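 active = z-score of -3 or lower and OD600 up to 0.18 on both plates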;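 also: plate controls were untreated cells for no effect and reference antibiotic for full effect; stock transfer was 100 nL into about 80 µL; one replicate is shown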
# Mtb hypoxia rep – PubChem AID 1159583; fluorescence inhibition, % (test concentration not listed); actives 0.1% (n = 300,000); M. tuberculosis hypoxia-regulated fluorescent reporter, fluorescence;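 active = 35 to 45% if threefold the growth effect, above 45% if 1.5-fold the growth effect; inactive = the rest, general growth blockers included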;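 also: wells of about 50 µL received 100 nL stock; 0% = vehicle wells and 100% = reference inhibitor wells; whole bacteria with a GFP reporter of the hypoxia response; strong numbers were not always called active; many hits fall short of the cut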
# Bead autofluor – compound fluorescence in toxin protease inhibitor counterscreen; compound autofluorescence counterscreen, microsphere flow cytometry; stronger effect = higher value; AID 624483; fluorescence intensity (no concentration beside the values); actives 3.1% (n = 360,000);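 active = at least 3 SD above the mean of all compounds, about 16000 in these data; inconclusive = too few beads counted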;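 also: 100 nL of 1 mM stock went into each well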
# Mtb hypoxia rep growth – second read-out of Mtb hypoxia rep, no call of its own (marks repeat the call); growth inhibition, %; measured here: M. tuberculosis growth (absorbance);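 0% = vehicle and 100% = reference antibiotic; read after six days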
# Starred values were filed as active, the others as inactive; u = inconclusive; x = not tested or not shown. Rows are unselected, and some 4% of all compounds hit somewhere here.
SMILES,ugtP null kill,BJeLR viability,PrP UTR inh,RN4220 kill,Mtb hypoxia rep,Mtb hypoxia rep growth,Bead autofluor
O=C(COC(=O)c1cc(S(=O)(=O)N2CCCCC2)ccc1N1CCOCC1)c1ccc(F)cc1,5,-1,-7,1.4,3,0,6789
CCCCN(CC)CCCNC(=O)c1cc2cc3ccc(OC)cc3nc2o1,2,12,-11,-1.4,-1,1,3329
O=C(NC1CC1)C1CCN(C2CCN(C(=O)/C=C/c3cccs3)CC2)CC1,-3,7,-19,1.3,-2,14,4652
COCCCN(C(=S)Nc1c(C)cc(C)cc1C)C(C)c1ccccn1 (stereo not drawn),-1,7,-27,2.4,-4,-16,4262
Cc1ccc(S(=O)(=O)N2CCN(CC(=O)N/N=C/c3ccco3)CC2)cc1,x,2,-19,x,x,x,2023
Nc1c(C(=O)Nc2ccc3c(c2)OCCO3)nnn1Cc1cccc(F)c1,-4,6,-67,3.1,10,-2,6014
Cn1c(N)c(C(=O)COC(=O)c2cncc(Br)c2)c(=O)n(C)c1=O,5,-8,-10,1.8,2,-3,3307
CC(=O)c1ccc(NC(=O)COC(=O)c2ccc(F)cc2F)cc1,13,-16,-19,1.0,9,10,5024
COc1cc(NC(=O)C2CC(c3cccc(OC)c3OC)=NO2)cc(OC)c1OC (stereo not drawn),1,-1,-10,2.2,2,2,22158*
Cc1ccc(NC(=O)c2cc(N(C)C)ccc2[P+](=O)O)cc1,0,5,-51,4.3,8,10,7602
Cc1c(Cl)cccc1NC(=O)CNC(=O)C1CC(=O)N(CCc2ccccc2)C1 (stereo not drawn),2,x,-1,2.4,9,6,x
CCOc1ccccc1-c1nc2c([nH]1)c(=O)n(C)c(=O)n2C,-1,10,-21,12,4,6,9599

# 7 entries out of the list, arranged by molecular weight, low to high:
SMILES,ugtP null kill,BJeLR viability,PrP UTR inh,RN4220 kill,Mtb hypoxia rep,Mtb hypoxia rep growth,Bead autofluor
Cc1ccc(NC(=O)c2cc(N(C)C)ccc2[P+](=O)O)cc1,0,5,-51,4.3,8,10,7602
CC(=O)c1ccc(NC(=O)COC(=O)c2ccc(F)cc2F)cc1,13,-16,-19,1.0,9,10,5024
COCCCN(C(=S)Nc1c(C)cc(C)cc1C)C(C)c1ccccn1 (stereo not drawn),-1,7,-27,2.4,-4,-16,4262
CCCCN(CC)CCCNC(=O)c1cc2cc3ccc(OC)cc3nc2o1,2,12,-11,-1.4,-1,1,3329
O=C(NC1CC1)C1CCN(C2CCN(C(=O)/C=C/c3cccs3)CC2)CC1,-3,7,-19,1.3,-2,14,4652
Cc1ccc(S(=O)(=O)N2CCN(CC(=O)N/N=C/c3ccco3)CC2)cc1,x,2,-19,x,x,x,2023
O=C(COC(=O)c1cc(S(=O)(=O)N2CCCCC2)ccc1N1CCOCC1)c1ccc(F)cc1,5,-1,-7,1.4,3,0,6789

# (further entries)
SMILES,ugtP null kill,BJeLR viability,PrP UTR inh,RN4220 kill,Mtb hypoxia rep,Mtb hypoxia rep growth,Bead autofluor
COc1cc(NC(=O)C2CC(=O)NC3=C2C(=O)CCC3)c(OC)cc1Cl (stereo not drawn),-6,2,-10,-2.3,-11,0,23479*
Cc1cc(=O)n2nc(N3CCC(C(=O)N4CCN(c5ccccc5)CC4)CC3)sc2n1,3,2,-7,2.2,-8,13,6318
O=C(Nc1cc2c3c(c1)CC(=O)N3CCC2)C1CC1,-6,-7,-29,6.1,7,3,5655
COc1ccc(COC(=O)N/N=C(\C)CC(=O)NCc2ccc(Cl)cc2)cc1,x,-4,-25,x,x,x,4031
O=C(COC(=O)/C=C/c1ccccc1[N+](=O)[O-])Nc1ccc(OC(F)F)cc1,1,6,-6,2.1,6,0,1944
CCOC(=O)/C=C/C(=O)NNC(=O)c1ccccc1Cl,-1,-3,-21,5.1,x,x,2751
COc1ccc(OC)c2nc(-c3cccnc3)ccc12,-1,-4,-18,1.0,11,10,2972
Cn1nc(-c2ccccc2)c(-c2nc(-c3cccc(Cl)c3)no2)c1Cl,4,1,11,-3.9,-5,7,4601
CC(=O)Nc1ccccc1NS(=O)(=O)c1ccccc1[N+](=O)[O-],10,-26,-13,8.1,2,10,4316
COCc1cc(C)nc(Nc2ccc(C)c(C)c2)c1C#N,-3,-1,-18,4.1,4,7,10474
Nc1nc(NCc2ccccc2)nc(NCCO)c1[N+](=O)[O-],0,-2,-5,3.0,-1,0,x
COC(=O)c1cc(OC)c(OC)cc1NC(=S)N1CCCC(CO)C1 (stereo not drawn),-1,-12,5,-1.5,4,6,22143*
CC(=O)c1ccc(-c2ccc(C(=O)N3CCC(C(N)=O)CC3)o2)cc1,8,10,7,7.7,6,13,u
COc1ccc(C2Nc3ccc4ccccc4c3-c3c2c(=O)oc2ccccc32)cc1 (stereo not drawn),25,-4,-15,-6.8,6,-4,7783
O=C(CCCCn1c(=S)[nH]c2ccsc2c1=O)NCc1ccc2c(c1)OCO2,6,-1,-12,-9.9,11,0,3166
COCOc1ccc(C=O)c(O)c1,-17,-5,-9,2.0,x,x,6058
CCN(CC)c1ccc(N/C(N)=N/c2nc(C(F)(F)F)cc(=O)[nH]2)cc1,-4,4,-13,0.2,8,3,4887
O=C(CCN1C(=O)c2cccc3cccc(c23)C1=O)NCC1CCCO1 (stereo not drawn),6,9,-20,3.8,-11,12,4462
N#Cc1c(-c2ccccc2Cl)cc(C2CC2)nc1N,8,x,-18,3.9,x,x,4058
Cn1c(Cl)c(/C=N/OC(=O)c2ccc(Cl)cc2)c2ccccc21,x,4,-49,x,x,x,2716
Cc1ccc(C(=O)C2=C(O)C(=O)N(CCCN3CCOCC3)C23C(=O)N(C)c2ccccc23)o1 (stereo not drawn),1,-2,-30,-9.4,1,8,3437
O=C(NN=C1C2CC3CC1CC(Cl)(C3)C2)c1cccs1,2,1,-12,6.7,4,-4,2165
Cc1ccc(NC(=O)Nc2cc(S(C)(=O)=O)ccc2Cl)cc1,1,-5,-38,2.5,10,11,4022
Sc1oc(-c2ccccc2)cc1C=Nc1ccccc1,4,7,-24,5.1,-9,-3,24473*
Cc1cc(C)c(C#N)c(SCc2ccc(C(=O)O)cc2)n1,x,1,-28,x,x,x,3101
O=S(=O)(Nc1cccc(Oc2cnccn2)c1)c1ccc(F)cc1,4,-11,-36,3.2,0,0,4463
Cc1cccc(N2CCN(C(=O)c3c(C)nn(Cc4ccccc4Cl)c3C)CC2)c1C,-3,0,-7,1.7,x,x,2591
CCCCCC(=O)c1ccc(O)cc1O,3,3,-24,4.2,9,12,3874
CCCCN(C(=O)c1ccc(N2CCCC2=O)cc1)c1c(N)n(Cc2ccccc2)c(=O)[nH]c1=O,-3,-3,-25,-1.0,7,0,6467
Fc1ccc(C2CC(c3cccs3)=NN2c2ccccc2)cc1 (stereo not drawn),3,-6,4,-0.1,-1,3,4733
Cc1c(NC(=O)CN2C(=O)NC(CCc3ccccc3)C2=O)c(=O)n(-c2ccccc2)n1C (stereo not drawn),-73,-3,30,-0.2,13,0,4618
CS(=O)(=O)Cc1ccc(C(=O)NC2CCCc3ccccc32)cc1 (stereo not drawn),8,-5,-13,2.0,3,0,5553
CCCCC(=O)N1CC(=O)Nc2ccc(F)cc2C1c1ccccc1 (stereo not drawn),8,-2,-20,5.1,-2,13,3679
O=C(COC(=O)Cc1ccccc1F)NNC(=O)c1ccc([N+](=O)[O-])cc1,7,-13,-21,2.4,13,4,6347
CCc1ccc2c(CSc3nnnn3C)cc(=O)oc2c1,5,-6,-12,3.1,13,6,3473
CCSc1ncc(Cl)c(C(=O)Nc2ccc(S(=O)(=O)Nc3ncccn3)cc2)n1,-2,-5,-23,1.9,14,8,5944
CCN(CC)C(=O)Cn1cc(C(=O)C(=O)N2CCN(C)CC2)c2ccccc21,9,10,-13,2.0,1,-2,u
Fc1ccccc1CSc1nnc(-c2cccnc2)o1,3,0,-101,4.5,x,x,6879
Cc1cccnc1NC(=O)C12CCC(C)(C(=O)O1)C2(C)C (stereo not drawn),9,2,-22,2.6,2,5,22033*
COc1ccccc1C(=O)NCCC(=O)NC(C)c1ccc(-n2ccnc2)cc1 (stereo not drawn),0,-1,-12,0.3,-17,0,6554
O=C1CCC(C(=O)N2CCCCO2)CN1CCc1ccc(Cl)cc1 (stereo not drawn),3,0,-3,4.9,-5,9,6014
NS(=O)(=O)c1ccc(NC(=O)Cn2ncc3c2-c2ccccc2OC3)cc1,-5,6,-3,-1.9,-9,-4,4387
COc1cc2cc(C(=O)NCCc3ccccc3)[nH]c2cc1OC,-4,2,-20,2.0,4,-3,3694
Cn1nc(C(=O)Nc2ccc3c(c2)OCCO3)c2ccccc2c1=O,-1,x,-32,0.2,8,2,3796
COc1ccc2oc(C(=O)OCC(=O)c3ccc4c(c3)OCCO4)c(C)c2c1,16,0,6,2.6,8,2,6512
O=C(COC(=O)c1cccs1)NC12CC3CC(CC(C3)C1)C2,0,-9,-15,3.8,-12,8,2557
COc1cc(CCC(=O)Nc2cc(C)cc(C)c2)cc(OC)c1OC,6,-3,-21,2.1,10,8,4115
CCN(CC)S(=O)(=O)c1cccc(C(=O)NN=C2CCCC(=O)C2)c1,-4,x,x,0.7,11,12,x
COc1ccc(N(CC(=O)Nc2cc(Cl)ccc2C)S(=O)(=O)c2c(C)noc2C)cc1,7,-1,-19,2.7,3,1,4252
CC1C(c2ccccc2)=[N+]([O-])C2(CCCCC2)N1O (stereo not drawn),7,-2,2,2.5,x,x,2282
COc1ccc(-c2nn(-c3ccccc3)cc2/C=N/NC(N)=S)cc1OC,x,-12,32,x,x,x,2530
CC(C)(O)CCCC(C)(O)c1ccc(C(=O)O)cc1O (stereo not drawn),1,-6,-5,1.4,x,x,4363
O=C(CN(CCc1ccccc1)S(=O)(=O)c1ccc(Cl)cc1)N/N=C/c1ccccc1C(=O)O,x,-10,-29,x,x,x,3442
Cc1cccc(NC(=O)C2CCN(C(=O)N3CCOc4ccccc43)CC2)c1C,-3,3,-14,-10,8,6,5792
COCCOC(=O)c1c(NC(=O)CN2CCCc3ccccc32)sc(C(N)=O)c1C,-9,-8,-20,2.1,-3,0,2462
O=C1CC(c2ccccc2)n2nc(N3C(=O)CCC3=O)nc2N1 (stereo not drawn),7,-2,-24,-2.0,x,x,3591
Cc1cccc(N2CCN(C(=S)Nc3ccc4nc5n(c(=O)c4c3)CCCCC5)CC2)c1C,6,x,-21,18,8,2,3354
COc1ccc(NCC(=O)NN=CC2CCCCC2)cc1,3,x,x,0.2,14,6,x
CC(C)NC(=O)C(=O)NCC(c1ccc2c(c1)OCO2)N1CCOCC1 (stereo not drawn),13,-4,-8,2.5,13,5,5839
Cn1nc(C(=O)N2CCN(c3cccc(Cl)c3)CC2)c2c1-c1ccccc1S(=O)(=O)C2,1,1,-18,2.2,5,2,5148
# Going on with the list.
SMILES,ugtP null kill,BJeLR viability,PrP UTR inh,RN4220 kill,Mtb hypoxia rep,Mtb hypoxia rep growth,Bead autofluor
Clc1ccc(-c2cc(COc3ccccc3)on2)cc1,-1,5,-41,5.1,1,-4,3693
CCCCNC(=S)N/N=C1\C(=O)c2cccc3cccc1c23,-16,-7,-7,-2.6,3,7,20454*
Cc1c(NC2(C#N)CCCCC2)c(=O)n(-c2ccccc2)n1C,-1,1,5,4.2,1,-10,3602
CN(C)c1nc(NC(C)(C)C)nc(SCC(=O)Nc2ccccc2)n1,7,-37,-3,12,13,7,3894
Cc1nc(Nc2cccc(Cl)c2)c2oc3ccccc3c2n1,13,21,-19,18,23,7,4086
Cn1c(=O)nc2n(Cc3ccccc3)c3cccc(Cl)c3cc-2c1=O,x,-7,-18,x,x,x,1786
COc1ccccc1N(CC(=O)NC1CCCC1)C(=O)CCCC(=O)Nc1ccccn1,1,-11,9,1.9,11,0,3289
Cc1ccc(NNC2CC(=O)N(c3cccc(Cl)c3)C2=O)cc1 (stereo not drawn),1,x,-11,8.3,-2,7,3500
CC(C)NC(=O)Nc1cccc2c1O[C@H](CN(C)S(=O)(=O)c1ccc(F)cc1)[C@@H](C)CN([C@H](C)CO)C2=O,9,x,-12,0.5,3,2,4654
NC(=O)CSc1oc(-c2ccco2)nc1S(=O)(=O)c1ccc(Cl)cc1,-2,2,-10,2.2,8,-2,3993
O=C1CCCC/C1=C/Nc1ccc2c(c1)OCO2,0,4,-38,1.8,6,6,16302*
CCn1c(SCC(=O)Nc2ccc(Br)cn2)nnc1C1CC1,1,11,3,2.2,5,6,5398
CCO/C=C1\N=C(c2ccc(F)cc2)OC1=O,1,-12,-13,-2.2,-5,-9,7768
O=C(c1c[nH]c(C(=O)C(Cl)(Cl)Cl)c1)c1ccc(F)cc1F,-3,6,-14,1.6,13,2,3806
